Source: PubChem BioAssay
eIF4H inh = inhibitors of RNA binding by human eIF4H | Q15056 | 290,000 tested, 0.94% active | AID 2012 | eIF4H fluorescence polarization binding assay | inhibition, % at 35 µM;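 active means 50% or more with normal probe brightness, or confirmed in later tests; about a fifth of its hits are not listed in these tables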;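 further: calls also rest on retests at 20 µM and on dose response follow-up; 0% = protein and probe with vehicle and 100% = probe without protein; strong numbers were not always called active; many hits fall short of the cut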
MT1-MMP act inh = MT1-MMP (human) activation inhibition; P50281; HT1080 RFP-PRO-GFP cells, GFP/RFP ratio fluorescence, overnight; percent of plate control window, DMSO zero; GFP/RFP ratio change, % at 20 µM; 360,000 tested, 0.061% active;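 active means GFP/RFP ratio change of at least 30% with cell ATP level not reduced by more than half and red fluorescence within 50% of control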; further: strong numbers were not always called active
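Material – HT1080 RFP-PRO-GFP cells · Control set – DMSO wells and RFP-L50D-GFP cells · Incubation – overnight cell settling, then overnight compound exposure, 37 °C, 5% CO2 · Compound dosing – single-point 20 µM compound, 1% DMSO · Read-out – GFP/RFP fluorescence ratio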
Env fusion inh = blocks HIV Env-driven cell-cell fusion | HeLa-JRFL Env/CEM21 cell fusion, luciferase | inhibition, % at 12.3 µM | 360,000 tested, 1.1% active | AID 651610;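 active means mean replicate inhibition score of at least 50 and every replicate individually at or above 50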;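 further: 0% = plate neutral controls and 100% = maraviroc near 300 nM; one replicate is shown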
Rce1 inhib = yeast Ras-converting enzyme inhibition | Q03530 | yeast membranes, quenched prenylated peptide cleavage fluorescence | calls only | 290,000 tested, 0.27% active;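 active means fall in fluorescence gain of 50% or more versus controls, with final raw signal at or below 3038400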;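 further: plate controls were neutral control wells for no effect and wells lacking membranes for full effect; tested at 10 µM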
CSC inhib = blocks cancer stem cells; cancer stem cell-like cells viability, luminescence; inhibition, % at 7.5 µM; 300,000 tested, 1.1% active;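 active means mean at 75% or more and at least half the replicates too; tested in HMLE shEcad cells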;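 further: 0% = median of negative and 100% = median of positive control wells; the first replicate is given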
UUG fidelity = yeast start codon fidelity modulation | S. cerevisiae UUG-firefly luciferase reporter, luminescence/redox ratio | 350,000 tested, 0.13% active | activity score, % at 18.7 µM;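 active means replicate mean at a twofold rise or more, about +100% in these data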;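 further: firefly luciferase made from a UUG start codon reports start codon fidelity; reporter light over untreated wells divided by growth signal over untreated wells; some hits fall short of that in this replicate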
PABP FP inh = PABP-poly(A) binding inhibition | P11940 | PABP-poly(A) RNA binding, fluorescence polarization | inhibition, % at 35 µM | 290,000 tested, 1% active;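 active means 50% or more with normal probe brightness, or confirmed in later tests; about a fifth of its hits are not listed in these tables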;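 further: calls also rest on retests at 20 µM and on dose response follow-up; controls were probe without protein and protein plus probe with vehicle; some compounds called inactive have numbers as strong as hits; many hits fall short of the cut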
Target sequence (P11940 whole entry, looked up): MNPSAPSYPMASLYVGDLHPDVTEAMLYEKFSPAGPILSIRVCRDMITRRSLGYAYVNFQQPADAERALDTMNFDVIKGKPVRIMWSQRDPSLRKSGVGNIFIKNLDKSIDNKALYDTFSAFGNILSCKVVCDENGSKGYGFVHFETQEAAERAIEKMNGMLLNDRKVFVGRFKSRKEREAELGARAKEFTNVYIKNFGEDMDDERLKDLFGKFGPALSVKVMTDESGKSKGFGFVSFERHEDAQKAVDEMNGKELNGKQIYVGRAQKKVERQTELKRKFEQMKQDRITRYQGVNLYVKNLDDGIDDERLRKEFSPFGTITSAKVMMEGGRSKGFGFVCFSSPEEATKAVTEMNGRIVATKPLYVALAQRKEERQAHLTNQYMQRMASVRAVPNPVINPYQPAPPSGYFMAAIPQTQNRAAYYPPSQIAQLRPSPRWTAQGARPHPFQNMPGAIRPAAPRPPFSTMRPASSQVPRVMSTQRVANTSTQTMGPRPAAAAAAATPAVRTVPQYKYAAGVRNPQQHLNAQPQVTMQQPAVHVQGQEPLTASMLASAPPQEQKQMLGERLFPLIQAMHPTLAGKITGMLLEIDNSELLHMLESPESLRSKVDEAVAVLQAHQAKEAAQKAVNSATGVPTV
eIF4H inh retest = also measured in eIF4H inh; calls as there; inhibition, %; compound at 20 µM; confirmation average;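 mean of two retest wells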
PABP FP inh retest = further read-out of PABP FP inh, marked with its call; inhibition, %; compound at 20 µM; confirmation repeats;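 mean of two retest wells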
MT1-MMP act inh RFP = further read-out of MT1-MMP act inh, marked with its call; RFP signal change, %; measured here: RFP expression control read;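 0 = vehicle wells; hits needed this value within 50% of zero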
The depositor's hits bear a star; i = inactive; · = not tested or not shown; & = joins results of further samples. These rows are one share of the data; the hit share may differ from the screen's.

SMILES	eIF4H inh	MT1-MMP act inh	MT1-MMP act inh RFP	Env fusion inh	Rce1 inhib	CSC inhib	UUG fidelity	PABP FP inh	others
COCCNCCCCSc1ccc(Cl)cc1	2	0	2	-9	i	5	·	-1
Cc1c(C(=O)Nc2ccccc2C(=O)N2CCCC2)cccc1[N+](=O)[O-]	4	·	·	5	i	-3	-8	0
Cc1ccccc1-c1nnn(CC(=O)N2CCN(S(=O)(=O)c3ccc(Cl)cc3)CC2)n1	6	-1	-4	·	i	-16	-2	-9
NC(=O)NC(=O)COC(=O)c1ccc2noc(-c3ccccc3)c2c1	3	2	12	-10	i	-20	-11	7
O=C(Nc1ccc2nsnc2c1)c1ccc2c(c1)OCO2	1	-1	-3	·	·	0	·	11
CCc1ccc(NC(=O)C2CCCN(S(C)(=O)=O)C2)cc1 (stereo not drawn)	-6	1	6	20	i	9	·	-8
CCCNC(=O)c1ccccc1C(=O)NCCC	-2	16	1	·	i	-6	4	-1
CC(NCc1ccc(N(C)C)cc1)C1CC2CCC1C2 (stereo not drawn)	-3	2	8	29	i	24	0	16
CN(CC(=O)N1CCN(c2ccccn2)CC1)S(=O)(=O)c1ccc(Br)cc1	-11	5	8	·	i	5	-17	-3
O=C(c1cc(-c2ccncc2)nc2ccccc12)N1CCN(c2ncccn2)CC1	·	3	2	4	·	-4	·	·
C[C@H](NC(=O)c1nc[nH]c1C(=O)N[C@@H](C)C(=O)OC(C)(C)C)C(=O)OC(C)(C)C	-3	5	0	-7	i	·	4	1
Nc1cc(=O)[nH]c(SCc2ccccc2)n1	·	2	8	-14	·	·	-16	·
C[C@H]1CN([C@@H](C)CO)C(=O)CCCn2nncc2CO[C@H]1CN(C)S(=O)(=O)c1cccc(C#N)c1	·	-1	4	22	·	·	-8&1	·
C[C@H](CO)N1C[C@H](C)[C@@H](CN(C)C(=O)NC2CCCCC2)Oc2ccc(NC(=O)Nc3ccc(C(F)(F)F)cc3)cc2C1=O	·	20	-6	-20	·	-1	12&-4	·
COCCOC(=O)c1[nH]c2c(c1C)C(=O)CC(c1cc(OC)c(OC)c(OC)c1)C2 (stereo not drawn)	7	1	-22	18	i	-1	·	0
CCn1c(=O)c(C(=O)NC(C)c2ccccc2)c(O)c2ccccc21 (stereo not drawn)	3	8	0	-11	i	-5	6	-3
CC(C)(C)NC(=O)c1cc(-c2ccc3c(c2)OCO3)nc2ccccc12	2	-2	-1	3	i	-6	-10	-8
Cc1ccc(N2C(=O)N(CC(=O)NCc3ccccc3Cl)C(=O)C2C)cc1 (stereo not drawn)	0	-1	-3	-1	i	1	-11	-3
CCOc1ccccc1NC(=O)COn1nnc2ccccc21	2	-2	-1	·	i	-8	-2	1
CCN(CC)CCOC(=O)c1ccc(NC(=O)c2cn(-c3ccccc3)nc2-c2cccs2)cc1	-8	-9	-13	-49	·	·	·	12

Some of these compounds in order of molecular weight, rising.
SMILES	eIF4H inh	MT1-MMP act inh	MT1-MMP act inh RFP	Env fusion inh	Rce1 inhib	CSC inhib	UUG fidelity	PABP FP inh	others
Nc1cc(=O)[nH]c(SCc2ccccc2)n1	·	2	8	-14	·	·	-16	·
CCCNC(=O)c1ccccc1C(=O)NCCC	-2	16	1	·	i	-6	4	-1
CC(NCc1ccc(N(C)C)cc1)C1CC2CCC1C2 (stereo not drawn)	-3	2	8	29	i	24	0	16
O=C(Nc1ccc2nsnc2c1)c1ccc2c(c1)OCO2	1	-1	-3	·	·	0	·	11
CC(C)(C)NC(=O)c1cc(-c2ccc3c(c2)OCO3)nc2ccccc12	2	-2	-1	3	i	-6	-10	-8
Cc1c(C(=O)Nc2ccccc2C(=O)N2CCCC2)cccc1[N+](=O)[O-]	4	·	·	5	i	-3	-8	0
O=C(c1cc(-c2ccncc2)nc2ccccc12)N1CCN(c2ncccn2)CC1	·	3	2	4	·	-4	·	·
C[C@H](NC(=O)c1nc[nH]c1C(=O)N[C@@H](C)C(=O)OC(C)(C)C)C(=O)OC(C)(C)C	-3	5	0	-7	i	·	4	1
COCCOC(=O)c1[nH]c2c(c1C)C(=O)CC(c1cc(OC)c(OC)c(OC)c1)C2 (stereo not drawn)	7	1	-22	18	i	-1	·	0
CN(CC(=O)N1CCN(c2ccccn2)CC1)S(=O)(=O)c1ccc(Br)cc1	-11	5	8	·	i	5	-17	-3
Cc1ccccc1-c1nnn(CC(=O)N2CCN(S(=O)(=O)c3ccc(Cl)cc3)CC2)n1	6	-1	-4	·	i	-16	-2	-9
CCN(CC)CCOC(=O)c1ccc(NC(=O)c2cn(-c3ccccc3)nc2-c2cccs2)cc1	-8	-9	-13	-49	·	·	·	12
C[C@H]1CN([C@@H](C)CO)C(=O)CCCn2nncc2CO[C@H]1CN(C)S(=O)(=O)c1cccc(C#N)c1	·	-1	4	22	·	·	-8&1	·
C[C@H](CO)N1C[C@H](C)[C@@H](CN(C)C(=O)NC2CCCCC2)Oc2ccc(NC(=O)Nc3ccc(C(F)(F)F)cc3)cc2C1=O	·	20	-6	-20	·	-1	12&-4	·

(further entries)
SMILES	eIF4H inh	MT1-MMP act inh	MT1-MMP act inh RFP	Env fusion inh	Rce1 inhib	CSC inhib	UUG fidelity	PABP FP inh	others
O=C(NCCCc1ccncc1)C1CCC(=O)N(CCc2cccc(F)c2)C1 (stereo not drawn)	-5	2	-3	9	i	-10	-23	-6
COCCNC(=O)c1sc2ncn(CC(=O)Nc3ccc(C)c(Cl)c3)c(=O)c2c1C	-2	2	3	18	i	-8	·	-8
Cc1ccc(S(=O)(=O)NC2CCCC2)cc1C	-3	-1	-1	-18	i	5	-3	5
Cc1ccccc1N1CCN(C(=S)c2ccccc2)CC1	-1	-5	1	-3	i	3	·	3
Nc1nnnn1/N=C/c1ccccc1C(F)(F)F	-5	-1	5	·	i	-18	-34	-2
COc1ccc(/C=C2\Oc3cc(OCC(=O)N4CCC[C@H]4C(=O)O)ccc3C2=O)cc1OC	-13	2	5	·	i	-4	12	-1
Cc1ccc(S(=O)(=O)NC(=O)Nc2ccc(Cl)cn2)cc1	-7	-3	2	·	i	15	-17	-3
Oc1ccc(-c2nccc(-c3ccc(F)cc3)n2)cc1	-10	5	6	-129	i	17	-7	-2
Cn1c(=O)c(=O)n(C)c2cc(N3CCOCC3)c(NS(=O)(=O)c3ccc(Br)cc3)cc21	13	3	0	-9	i	-16	14	16
Cc1ccc2cc(CN(C(=O)C3CCCO3)C3CCCCC3)c(=O)[nH]c2c1 (stereo not drawn)	4	-2	0	·	i	-9	-6	2
C#CCOc1ccc(/C=C2/C(=O)N(c3cccc(C(=O)O)c3)N=C2C)cc1OC	23	-1	5	8	i	-11	-9	22
COc1cccc(C(=O)NNc2nc(C)cc(C)n2)c1	0	3	2	-1	i	-1	-13	8
C=CCn1c(SCc2cc(=O)n3ccsc3n2)nc2scc(C3CC3)c2c1=O	2	2	6	-2	i	3	-13	-11
O=c1[nH]c2ccc(Cl)cc2c(-c2ccccc2)c1N1CCOCC1	0	-15	-16	32	i	27	-14	-8
Cc1ccc2c(CC(=O)O)coc2c1C	-2	-1	3	·	i	14	-37	3
O=C(CCC(=O)N1CCN(S(=O)(=O)c2ccc(Cl)cc2)CC1)Nc1cccc(Br)c1	-15	-1	0	·	i	-11	-20	0
COc1ccc(C(=O)Nc2cc(C)nn2-c2nc3ccccc3[nH]2)c(OC)c1	2	-5	5	-2	i	-12	·	86	eIF4H inh retest=9;PABP FP inh retest=2
CC12C(=O)N(c3ccccc3)C(=O)C1C(c1ccccc1)N1CCCN12 (stereo not drawn)	-13	-1	4	6	i	-14	-14	-6
Cc1nn(CC(=O)N(C)C)c(=O)c2ccccc12	-14	1	2	-32	i	-1	-12	4
C=CCNC(=O)COc1ccc(N(C)S(=O)(=O)c2ccc(NC(C)=O)cc2)cc1	-7	1	-4	4	i	-21	-5	-3
COc1ccc(Cl)cc1C(=O)NNC(=O)C1COc2ccccc2O1 (stereo not drawn)	-12	0	4	0	i	-9	-19	-5
O=C(O)CCCCCN1C(=O)C2CCCCC2C1=O (stereo not drawn)	-9	6	12	-6	i	-4	-7	-3
CCOC(=O)c1ccccc1NC(=O)COC(=O)CSC(C)C(=O)Nc1cc(C)on1 (stereo not drawn)	-11	1	3	-18	i	-8	9	12
O=C(O)CSc1nc(SCc2ccccc2Cl)nc2c1CCCC2	-9	-2	0	10	i	-1	·	0
Cc1ccc2nc(SCC(=O)Nc3ccc(Cl)cc3)nc(=O)n2c1	·	1	1	-138	i	-15	-8	·
O=C(NCCN1CCOCC1)/C(=C\c1ccc(F)cc1)NC(=O)c1ccccc1	·	0	4	11	i	0	-8	·
Cc1ccc(C)n1/N=C1/NC(=O)CS1	92*	1	10	4	·	-5	-20	73*
CCCC1(c2ccccc2)NC(=O)N(CC(=O)Nc2cc(C)on2)C1=O (stereo not drawn)	-4	0	0	-10	i	-19	·	-5
C[C@@H]1CN([C@H](C)CO)C(=O)CCCn2nncc2CO[C@@H]1CN(C)C(=O)Nc1ccc2c(c1)OCO2	·	3	3	12	·	·	-20&-4	·
COc1ccc(N=C2SC(C(=O)N3CCN(c4ccccc4)CC3)CC(=O)N2C)cc1 (stereo not drawn)	-1	0	0	6	i	-10	11	-2
Cc1ccc(SCc2cc(=O)[nH]c(/N=C(\N)Nc3cccc4ccccc34)n2)cc1	-5	-2	0	25	i	1	·	-8
CC(C)(C)OC(=O)NCCCCCc1nnc(SCC(=O)Nc2cccc(Cl)c2)o1	-2	3	1	-4	i	6	-8	7
CC(=O)Cn1cnc2c(cnn2-c2ccc(F)cc2)c1=O	·	-2	2	-26	·	·	-14	·
CCc1nc2ccc(C(=O)Nc3cccc(OCC(=O)N(C)C)c3)cn2c1N(C)Cc1ccc(OC)cc1	·	-6	-2	14	·	·	0	·
Brc1ccc(C2=Nc3cccc4cccc(c34)N2)o1	83	-1	8	-3	i	·	·	-1	eIF4H inh retest=-8;PABP FP inh retest=0
COC(=O)c1ccc(S(=O)(=O)N2CCCCCC2)n1C	-5	-2	-3	1	i	8	-11	-10
CCOC(=O)C1=CCN(S(=O)(=O)c2ccccc2[N+](=O)[O-])C1c1ccc(C)cc1 (stereo not drawn)	·	1	-1	25	·	·	-12	·
COc1ccc(OC)c(Nc2nc(N)c([N+](=O)[O-])c(NC3CCCCC3)n2)c1	-2	1	1	6	i	9	-1	8
CN(c1ccc(C(=O)N2CCN(Cc3ccccc3)CC2)cc1)S(=O)(=O)c1ccc(Cl)cc1	-3	8	-10	-45	i	1	-13	-13
Cc1ccc(NC(=O)Cn2ncn3c(cc4ccccc43)c2=O)c(C)c1	-8	1	3	-6	i	-14	-32	-10
Cc1cc(C[n+]2ncsc2N)c2ncccc2c1	-4	-5	-2	-105	i	-7	-3	8
CCOc1ccc(-c2c(=O)n(O)c3ccccc3[n+]2[O-])cc1	-2	4	3	-28	i	-7	0	8
N#Cc1ccccc1OCC(=O)OCCCOC(=O)COc1ccccc1C#N	-10	-1	0	2	i	-4	-16	4
Cc1cccc(C)c1Cn1c(C)c(C(=O)NCc2cccc(Cl)c2)sc1=O	·	6	-7	-7	·	·	-10	·
CCNC(=O)N(C)C[C@H]1N[C@@](C)(C(=O)OC)[C@H]2C(=O)N(Cc3ccccc3)C(=O)[C@@H]12	·	3	3	-13	·	·	-17	·
COc1cc(C2C3=C(CCCC3=O)Nc3[nH]n(-c4ccccc4)c(=O)c32)cc(OC)c1OC (stereo not drawn)	-4	2	3	2	i	8	·	4
CCNc1ccc(C(=O)OCC)cc1NC(=O)c1cccc(S(=O)(=O)N(C)c2ccccc2)c1	1	1	-4	-25	i	16	·	-2
